Screening results: PubChem, several laboratories
Arbovirus anti: arbovirus infection inhibition | arbovirus infection cell-based antiviral screen | inhibition, % at 10 µM | actives 0.37% (n = 200,000);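 active = inhibition from about 30%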;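 also: bluetongue infection of BSR cells; cell survival read as ATP light after 72 h; 0% = infected wells without compound and 100% = uninfected wells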
Mtb bLac sens: beta-lactam sensitization of Mtb H37Rv; actives 0.27% (n = 330,000); inhibition, % at 25 µM; M. tuberculosis H37Rv growth with meropenem, percent inhibition; hits of this screen are not shown here;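 active = about 74% or more and at least 40 points above the plate without the antibiotic, then above 30% in a dose series; inconclusive = first-round hits that could not be retested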;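 also: growth measured after seven days incubation then overnight dye step; 0% = bacteria only wells and 100% = bacteria with antibiotic; twin plates without the antibiotic show which effects depend on it; some results filed as inactive read as strong as hits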
RecA intein inh: inhibitors of M. tuberculosis RecA intein splicing | P9WHJ3 | cell-free RecA intein splicing, fluorescence | inhibition, %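 (about 9 µM by stock and volumes)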 | actives 0.75% (n = 290,000) | AID 2221; in the data active = inhibition above about 30%; inconclusive = no clear call, values can overlap the other calls;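 also: 0% = vehicle wells and 100% = reference inhibitor control wells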
Target sequence (P9WHJ3 whole entry, looked up): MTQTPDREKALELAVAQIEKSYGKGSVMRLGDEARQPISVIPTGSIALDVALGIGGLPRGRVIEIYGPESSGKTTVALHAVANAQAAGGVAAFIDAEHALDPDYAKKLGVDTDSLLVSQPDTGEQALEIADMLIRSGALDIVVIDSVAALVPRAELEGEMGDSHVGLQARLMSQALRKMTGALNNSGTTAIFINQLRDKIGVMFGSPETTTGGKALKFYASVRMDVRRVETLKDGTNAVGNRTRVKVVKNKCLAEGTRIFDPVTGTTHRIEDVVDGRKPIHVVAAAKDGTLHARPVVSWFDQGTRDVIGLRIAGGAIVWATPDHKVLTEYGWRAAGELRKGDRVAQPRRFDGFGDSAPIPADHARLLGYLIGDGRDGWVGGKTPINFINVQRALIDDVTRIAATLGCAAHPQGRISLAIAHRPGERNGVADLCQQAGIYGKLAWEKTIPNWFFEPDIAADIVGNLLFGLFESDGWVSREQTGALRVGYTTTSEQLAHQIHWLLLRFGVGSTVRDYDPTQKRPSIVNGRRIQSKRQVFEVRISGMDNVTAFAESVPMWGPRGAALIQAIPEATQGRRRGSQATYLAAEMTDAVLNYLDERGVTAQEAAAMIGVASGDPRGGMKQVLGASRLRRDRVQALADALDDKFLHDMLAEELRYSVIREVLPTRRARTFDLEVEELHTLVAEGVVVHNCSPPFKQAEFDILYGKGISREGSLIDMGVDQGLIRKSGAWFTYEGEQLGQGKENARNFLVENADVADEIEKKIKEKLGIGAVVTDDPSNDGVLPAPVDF
Mtb H37Rv: M. tuberculosis H37Rv growth inhibitors, H37Rv strain (AID 1626). actives 0.95% (n = 220,000). M. tuberculosis H37Rv growth inhibition; higher % means a stronger effect. one-dose inhibition, % at 10 µM; IC50 in µM for titrated hits;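 active = confirmed in a dose series; inconclusive = inhibition above 80% but not taken into the dose series; inactive = below 80% or under 30% at every dose of the series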;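 also: bacteria incubated seven days before Alamar blue readout; 0% = bacteria only wells and 100% = bacteria with antibiotic wells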
YopH inh: inhibitors of Yersinia enterocolitica YopH tyrosine phosphatase | fluorescence Ex485/Em525 | inhibition, %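 (about 10 µM by stock and volumes)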 | actives 0.16% (n = 140,000) | AID 898;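 active = inhibition of 50% or more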;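 also: controls were vehicle for no effect and minimum signal wells for full effect; inactives centre near -20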
Arbovirus anti repeat: further read-out of Arbovirus anti, marked with its call; inhibition, %; measured here: 10K subset replicate screen; many hits read low in the repeat;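 first of two repeat runs on a subset; 0% = infected and 100% = uninfected wells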
The depositor's hits bear a star; ? = inconclusive; . = no result given.

SMILES	Arbovirus anti	Mtb bLac sens	RecA intein inh	Mtb H37Rv	YopH inh	others
Cc1nc(C(=O)Nc2ccccc2)sc1C(=O)Nc1ccccc1	.	-4	5.2	8%	.
CCc1c(C)nc2ncnn2c1N1CCC(C(=O)Nc2ccc(C)cc2)CC1	-15	-4	1.4	-2%	-18
O=C(c1ccco1)N1CCC(c2nc3c(nnn3Cc3ccccc3Cl)c(=O)[nH]2)CC1	.	7	1.8	.	.
CCCCOc1ccc(C(=O)N/C(=C\c2ccc(OC)cc2)C(=O)OCc2ccco2)cc1	1	91	7.7	8%	-28
CCN(Cc1ccncc1)C(=O)c1cc(COc2c(C)cccc2C)on1	.	0	1.1	.	.
O=C1C(=O)N(CCN2CCOCC2)C(c2ccc(Cl)c(Cl)c2)/C1=C(/O)c1ccc2c(c1)OCO2 (configuration not stated)	.	-1	-1.3	.	.
CC1Cc2ccccc2N1CC(=O)c1c(N)n(Cc2ccccc2)c(=O)n(C)c1=O (configuration not stated)	-7	4	-1.2	-5%	-12
Cc1ccc2nc(-c3ccncc3)c(NC3CCCCC3)n2c1	5	6	1.0	5%	.
Cc1cc(NC(=O)NN2CCOCC2)nn1-c1c(Cl)cc(Cl)cc1Cl	.	21	0.2	-1%	.
CCOc1cc2[nH]c(=O)n(CCC(=O)NCCc3ccc(OC)c(OC)c3)c(=O)c2cc1OCC	-2	1	-2.5	-8%	-12
C=CCNc1cc(N2CCCC2)ccc1[N+](=O)[O-]	23	4	1.3	2%	.
CCOc1cc(/C=N/NC(=O)C(=O)Nc2cc(Cl)ccc2C)ccc1O	-2	7	-2.5	1%	.
CC(C)CNC(=O)COC(=O)c1cc(S(=O)(=O)N(C)C)ccc1N1CCCC1	5	4	-1.4	5%	.
Cc1ccc(S(=O)(=O)c2nc(C(C)(C)C)oc2N2CCOCC2)cc1	1	?	-4.8	-1%	-17
CCOC(=O)N/N=C/c1c(F)cccc1F	1	3	0.5	1%	-13
CC(=O)c1cccc(CN2CCCCC2C(=O)Nc2ccc(Oc3ccccc3)nc2)c1 (configuration not stated)	.	1	-1.1	.	.
CCOC(=O)C1(CCCc2ccccc2)CCN(S(=O)(=O)N(C)C)CC1	.	1	5.4	.	.
Cc1c(NC(=O)Nc2c(Cl)cccc2Cl)c(=O)n(-c2ccccc2)n1C	.	0	-1.1	-11%	.
CCOc1ccccc1C(=O)Nc1cc(C(=O)NCC(C)C)ccc1Cl	-13	-3	1.8	.	.
CCCCN(Cc1ccco1)C(=O)C1CCCN(c2ncnc3c2nc2n3CCCCC2)C1 (configuration not stated)	.	-1	6.9	.	.
COc1ccc(C(=S)Nc2ccccc2)cc1	5	2	1.4	.	-11
Cc1ccc(N/C=C/C(=O)C(C)(C)C)c(O)c1	-12	36	11	-1%	2
Cc1cccc(NC(=S)N(CCN(C)C)Cc2cc3cccc(C)c3[nH]c2=O)c1	0	6	1.5	12%	-21
COc1cc(/C=C/C(=O)OCC(=O)c2c(N)n(C)c(=O)n(C)c2=O)ccc1OC(F)F	-3	1	0.1	3%	.
COc1ccc(S(=O)(=O)N(C)CC(=O)NCc2ccccn2)cc1	.	-7	0.4	.	.
COCCNC(=O)CCCn1c(=O)c2cc(OC)c(OC)cc2n(CC(=O)c2cccc(OC)c2)c1=O	6	-9	-8.2	1%	.
CC(=O)COc1ncn(-c2ccccc2)n1	6	26	-0.5	-7%	-7
CCNc1ccc(C2(O)C(=O)c3ccccc3C2=O)cc1	-1	-4	1.6	-3%	-14
O=C(c1cccnc1)N1C2C=CC(C2)C1(C(F)(F)F)C(F)(F)F (configuration not stated)	8	-3	.	-13%	-33
C=CCc1ccccc1OCC(O)CN1CCN(c2ccccc2F)CC1 (configuration not stated)	7	4	4.3	15%	4
COC(=O)C1CCN(C2=C(NS(=O)(=O)c3ccc(Cl)cc3)C(=O)c3ccccc3C2=O)CC1	.	-1	11	4%	.
Cc1cc(=O)[nH]c(-n2nc(C)cc2C)n1	-2	95	4.7	1.4µM*	-48
Cc1ccc(-n2nc(C)c3c2NC2=C(C(=O)CC(C)(C)C2)C3c2ccccc2OCC(=O)O)cc1 (configuration not stated)	8	1	2.3	4%	.
Cc1ccc(-n2c(C)cc(C)c(C#N)c2=O)cc1Cl	6	-13	1.8	0%	0
CS(=O)(=O)NCCNc1ccc(C(F)(F)F)cc1[N+](=O)[O-]	12	-2	0.0	-3%	.
O=C(NCCc1ccccc1F)/C(=C/c1cccnc1)NC(=O)c1ccccc1	-3	0	-1.0	9%	-18
Cc1ccc(C(=O)NNC(=O)c2ccc3ccccc3c2O)cc1	.	1	6.4	.	.
Cc1ccc(C(C)C)c(OCC(=O)N2CCOCC2)c1	-1	17	4.2	-3%	-10	Arbovirus anti repeat=-5
COc1ccc(N(C(C)C(=O)N/N=C(\C)C(C)(C)C)S(C)(=O)=O)cc1 (configuration not stated)	0	1	0.6	1%	.
COc1cc([N+](=O)[O-])ccc1N/C=C/C(=O)c1cccs1	-6	-4	-3.1	-5%	-12
O=C(Nc1nnc(-c2ccccc2)o1)C1CCCN1S(=O)(=O)c1cccs1 (configuration not stated)	.	-3	-1.9	.	.
O=C(CSc1nc2ccccc2n1CC(=O)N1CCCC1)Nc1ccc2c(c1)OCO2	9	?	6.7	8%	-28
COCCN(C(=O)COC(=O)CC1CCCCC1)c1c(N)n(Cc2ccccc2)c(=O)[nH]c1=O	.	-10	-2.5	.	.
Cc1cnc(C(=O)OCC(=O)c2cccc3ccccc23)cn1	.	1	2.7	.	.
CCCCCCc1c(C)nc(-n2[nH]c(C)c(CCO)c2=O)[nH]c1=O	-3	20	16	0%	.
Cc1cc(NC(=O)c2cccs2)ncc1NC(=O)c1cccc(F)c1	0	-9	1.6	1%	.
Cc1c(C(=O)O)sc(=S)n1CCOc1ccccc1	-1	-1	-1.7	-8%	-57
Cc1noc(C)c1-c1nnc(-c2ccc(C(F)(F)F)cc2)o1	.	-13	-4.5	-4%	.
CN(Cc1ccccc1)C(=O)c1cc(S(=O)(=O)N2CCOCC2)cn1C	.	-5	-0.8	.	.
CCCCN(C)CCCNC(=O)c1cc(Nc2ccc(OC)c(OC)c2)nc2ccccc12	.	1	-0.5	.	.
S=C1NC2(CCCCC2)NC12CCCCC2	.	-8	1.6	-9%	.
O=C(CSc1nnc(Cn2c(=O)sc3ccccc32)n1-c1ccccc1)N1CCCCCC1	-1	5	.	-2%	-37	Arbovirus anti repeat=-3
Cc1ccc(CN(C(=O)c2ccco2)C(C(=O)NC2CCCC2)c2ccc(N3CCOCC3)cc2)cc1 (configuration not stated)	2	3	2.0	2%	-14
CC1(C)CC(=O)C2=C(C1)NC(=O)CC2c1cccc(F)c1 (configuration not stated)	2	0	-0.6	-7%	-14
COc1ccc(C2CC(c3cccs3)=NN2C(=S)Nc2ccccc2)cc1OC (configuration not stated)	7	-4	1.1	12%	-26
O=C(NS(=O)(=O)Oc1cccc(F)c1)OC[C@@H]1CCCN2CCCCC12 (some centres not stated)	.	0	1.8	.	.
CCOC(=O)c1ccc(NC(=O)C2(c3ccccc3)CCCC2)cc1	9	16	-3.1	10%	-20
CCOC(=O)c1sc(N2N=C(C)/C(=C\c3ccc(OCC(=O)OC)cc3)C2=O)nc1C	3	6	-3.3	3%	-25
CC(C)COc1ccc(C(=O)OCC(=O)NCCC2=CCCCC2)cc1	.	0	2.7	.	.
CC(C)(C)S(=O)(=O)c1cnc2c(S(=O)(=O)c3ccccc3)cnn2c1N	-1	-6	20	7%	.

A stretch of the results above, for reference:
SMILES	Arbovirus anti	Mtb bLac sens	RecA intein inh	Mtb H37Rv	YopH inh	others
Cc1nc(C(=O)Nc2ccccc2)sc1C(=O)Nc1ccccc1	.	-4	5.2	8%	.
CCc1c(C)nc2ncnn2c1N1CCC(C(=O)Nc2ccc(C)cc2)CC1	-15	-4	1.4	-2%	-18
O=C(c1ccco1)N1CCC(c2nc3c(nnn3Cc3ccccc3Cl)c(=O)[nH]2)CC1	.	7	1.8	.	.
CCCCOc1ccc(C(=O)N/C(=C\c2ccc(OC)cc2)C(=O)OCc2ccco2)cc1	1	91	7.7	8%	-28

Carrying on.
SMILES	Arbovirus anti	Mtb bLac sens	RecA intein inh	Mtb H37Rv	YopH inh	others
Cc1cc(=O)n2nc(N3CCCC(C(=O)N4CCN(C)CC4)C3)sc2n1 (configuration not stated)	-3	-5	0.4	-2%	-14
CCOc1c(Cl)cc(C(=O)Nc2cccc(C(=O)O)c2)cc1Cl	11	-4	-1.5	-7%	.
COc1ccc(S(=O)(=O)N2CCOC2CNC(=O)C(=O)NCc2cccnc2)cc1C (configuration not stated)	.	-10	-2.9	-8%	.
COc1cc(CNCCCN2CCOCC2)c(Br)cc1OCC(=O)Nc1ccccc1C	-16	-5	0.6	-5%	.
Cc1cc(C)c(C)c(S(=O)(=O)NCC(=O)Nc2ccc(F)cc2)c1C	.	-3	-0.9	.	.
O=C(Nc1cccnc1)c1cc(-c2ccc(Cl)cc2)on1	1	-3	-1.1	11%	.
C#CCn1cc(/C=C2\NC(=O)NC2=O)c2ccccc21	.	2	7.3	.	.
CCOCCc1c(O)nc(SC)[nH]c1=O	.	-7	-0.7	-4%	.
Cc1nn(-c2ccccc2)c2nc(N)c(C#N)c(-c3ccc(O)c(O)c3)c12	.	?	5.4	.	.
COc1ccc(Cl)c(S(=O)(=O)N2CCCC2)c1	6	2	-7.4	.	-26
COc1ccc(OCCNS(=O)(=O)c2cccc([N+](=O)[O-])c2)cc1	7	2	-3.4	-6%	.
COc1ccc(C2CC(=O)C(C=NCCN3CCN(C(=S)Nc4ccccc4)CC3)=C(O)C2)cc1 (configuration not stated)	.	-9	0.4	1%	.
Cc1ccc(NC(=O)C2CCN(S(=O)(=O)c3ccc4c(c3)NC(=O)C(C)S4)CC2)cc1Cl (configuration not stated)	.	99	7.6	.	.
CCOc1cccc(CN2CCN(Cc3ccc(C)o3)C(CCO)C2)c1O (configuration not stated)	0	-6	-0.1	9%	.
COc1ccc(OC)c(NC(=O)c2ccccc2SC)c1	-4	.	2.3	2%	-12
Cc1c([N+](=O)[O-])c([N+](=O)[O-])nn1CC(=O)N1CCCCC1	4	-7	0.1	-3%	-21
COc1ccc(C(=O)NC2CCCCCC2)cc1S(=O)(=O)Nc1ccc(Br)cc1	-5	-1	0.3	1%	-6
COC(=O)c1ccccc1NC(=O)c1ccc(COc2ccc(C)c(C)c2)o1	48*	30	1.1	3%	-9
COc1cccc(CN(Cc2cccnc2)S(=O)(=O)c2ccc(-n3cnnn3)c(C)c2)c1OC	3	0	0.0	-5%	0
CC1=CC(C)(C)C(C(=O)O)C(C(=O)O)C1 (configuration not stated)	4	-2	-2.5	8%	-21

Continued (5 carried over from the part before).
SMILES	Arbovirus anti	Mtb bLac sens	RecA intein inh	Mtb H37Rv	YopH inh	others
Cc1c([N+](=O)[O-])c([N+](=O)[O-])nn1CC(=O)N1CCCCC1	4	-7	0.1	-3%	-21
COc1ccc(C(=O)NC2CCCCCC2)cc1S(=O)(=O)Nc1ccc(Br)cc1	-5	-1	0.3	1%	-6
COC(=O)c1ccccc1NC(=O)c1ccc(COc2ccc(C)c(C)c2)o1	48*	30	1.1	3%	-9
COc1cccc(CN(Cc2cccnc2)S(=O)(=O)c2ccc(-n3cnnn3)c(C)c2)c1OC	3	0	0.0	-5%	0
CC1=CC(C)(C)C(C(=O)O)C(C(=O)O)C1 (configuration not stated)	4	-2	-2.5	8%	-21
COc1ccc(C(=O)Nc2cc3c(cc2C#N)OCO3)cc1S(=O)(=O)N1CCN(C)CC1	4	3	0.8	-5%	1	Arbovirus anti repeat=2
Cc1cc(C(=O)NCCCn2ccnc2)sc1-c1ccccc1	-12	-4	-1.7	6%	-24
CC(C)[C@H](NC(=O)c1ccccc1)C(=O)OCC(=O)N1CCCc2ccccc21	-3	1	-1.0	8%	-31
Cc1ccc(CNC(=O)N[C@@H](Cc2ccccc2)C(=O)O)cc1	2	2	-2.7	-9%	-36
COc1cc(OC)c(C(=O)Nc2cc(Cl)ccc2-n2cncn2)cc1OC	.	-6	-1.7	.	.
O=C(COC(=O)c1ccc(Br)o1)Nc1nc2c(F)c(F)c(F)cc2s1	.	-5	1.5	-2%	.
Fc1cccc(-c2oncc2-c2nnnn2-c2ccc(Cl)cc2)c1	-4	-13	0.8	-5%	-28
Nc1c(-c2ccccc2)nc(Cl)nc1-c1ccccc1	8	8	-85	11%	-19
Cc1onc(-c2c(Cl)cccc2Cl)c1C(=O)N1CCCCC1	.	2	1.3	.	.
CCOC(=O)Cc1csc(NC(=O)Cc2ccc(Br)cc2)n1	.	14	3.3	14%	.
Cc1ccc(OCCSc2nnc(-c3ccncc3)n2C)cc1	-2	-23	0.9	2%	-20
CC1(C)CC(=O)C=C(NCc2cccc(C(F)(F)F)c2)C1	.	0	-1.2	2%	.
CCc1cc2c3c(c(=O)oc2cc1OCC(=O)OC)CCCC3	.	87	0.5	.	.

An excerpt; count on the stated rates, not on these rows.
